NPYLR7 ag: mosquito NPYLR7 agonism; HEK293T NPYLR7/Galpha15, GCaMP6s calcium fluorescence; activation, % at 10 µM; 270,000 tested, 0.15% active; in the data active = activation above about 40%;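 also: 0% = vehicle and 100% = reference agonist at the receptor; some compounds past the cut are filed as inactive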
NPYLR7 ag max-min: further read-out of NPYLR7 ag, marked with its call; activation, %; measured here: Max-Min RFU normalised activation; some inactives read as strong as hits;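 span of the calcium signal over five minutes; 0% = vehicle and 100% = native peptide agonist; compound fluorescence can raise it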
The depositor's hits bear a star; & = joins results of further samples. A portion of the library; count on the stated rates, not on these rows.

#	smiles	NPYLR7 ag	NPYLR7 ag max-min
1	CC(C)Nc1nc2nonc2nc1NCc1ccccc1	12	3
2	Cc1ccc(NS(=O)(=O)c2cccc(C(=O)Nc3cc(C)on3)c2)cc1	0	0
3	CC(=O)Nc1ccc(CN2C(=O)C(C)ON=C2c2ccc(N(C)C)cc2)cc1 (stereo not drawn)	-1	-2
4	CNC(=O)c1ccc(Cn2cnc3nc(SC)sc3c2=O)cc1	5	0
5	CCN(CC)C(=O)Oc1ccc2c(ccn2Cc2cccc(Oc3ccccc3)c2)c1-c1ccc(C#N)cc1	13	16
6	O=C(CSc1ccc(-c2ccc(-n3cccn3)cc2)nn1)c1ccccc1	-7	-10
7	CCCCN(C=O)c1c(CC)nc2ccc(C(=O)Nc3ccc(C(N)=O)cc3)cn12	7	-3
8	CN(C)CCCn1c2c(c(SCC(=O)Nc3cccc4ccccc34)nc1=O)CCCC2	-1	5
9	O=C(NN=Cc1ccccc1Cl)c1nc2ccccc2c(=O)[nH]1	-6	-10
10	N#Cc1cccc(OCc2noc(-c3ccsc3)n2)c1	20	15
11	COc1ccc(-c2csc(-n3[nH]c(C)c(N=Nc4nccs4)c3=O)n2)cc1	-4	-10
12	COc1ccc(NC(=O)CNC(=O)CN(Cc2ccc(F)cc2)C(=O)c2cc(OC)cc(OC)c2)cc1	-5	10
13	COc1cc(OC)cc(C(=O)Nc2nc3ccc(OC)cc3s2)c1	5	4
14	CNC(=O)c1ccc(OC)c(NC(=O)NCc2cc(F)ccc2F)c1	9	5
15	COc1ccc(C2=N/C(=C\C(Cl)=C\c3ccccc3)C(=O)O2)c(Br)c1	-5	-11
16	CC1=C(C(=O)NCc2snnc2C(C)C)C(C)NC(=O)N1 (stereo not drawn)	-3	-8
17	C1CCC(N2NC2C2NN2C2CCCCC2)CC1 (stereo not drawn)	-9	-16
18	COC(=O)c1nc2n(n1)-c1ccccc1S(=O)(=O)N2	13	11
19	COc1ccc(C(=O)N2C[C@@H]3C[C@H](C2)c2ccc(NS(=O)(=O)c4ccc(OC)cc4)c(=O)n2C3)cc1	-8	-17
20	Cc1cc(C)c(Cn2c(CO)nc3ccccc32)c(C)c1	-8	-10
21	O=C(CN1CCN(c2ncccn2)CC1)Nc1cnc2n1CCCC2	4	2
22	COc1ccccc1CC(=O)N1CCOC(Cc2ccccc2)C1 (stereo not drawn)	-5	-7
23	CN(CCO)c1nc(N)c(C#N)c(CC#N)c1C#N	1	4
24	CN(C)/C=C1\CCn2cnc(=O)c(C#N)c21	8	4
25	CC1CCC(N2CCC(N(C)C(=O)Nc3ccc(F)cc3F)CC2)CC1 (stereo not drawn)	-6	-8
26	COC(=O)Cn1c(=NC(=O)c2ccn(C)n2)sc2ccccc21	7	14
27	CCOc1ccc(-c2cc(C(=O)Nc3ccc(S(=O)(=O)NC(C)=O)cc3)c3ccccc3n2)cc1	-1	-10
28	CCN(CC(O)COCC(C)C)CC1CC(c2ccc(OC)cc2)=NO1 (stereo not drawn)	-4	2
29	CCC(C1=NN2C(=N)/C(=C\c3ccc(C)o3)C(=O)N=C2S1)c1ccccc1 (stereo not drawn)	-2	-1
30	Cc1ccc(CN(Cc2ccc(F)cc2)C(=O)c2ccco2)o1	-9	-13
31	CCOc1ccc(Cc2c(O)nc[nH]c2=O)cc1	1	16
32	CCOC(=O)c1nc2cc(C)c(C)cc2nc1N1CCN(C(=O)CCSC)CC1	2	0
33	Cc1ccc(-c2ccc(=O)n(CCCC(=O)N3c4ccccc4CC3C)n2)cc1 (stereo not drawn)	-8	-12
34	COc1cccc(C=NNC(=O)c2cc(-c3ccc(Cl)s3)[nH]n2)c1	0	0
35	Cn1c(=O)[nH]c(=O)c2c1nc(N1CCN(CCO)CC1)n2Cc1ccccc1F	0	-2
36	N#Cc1cc2c(nc1SCC(=O)N1CCOCC1)CCC2	-2	-5
37	O=C(c1ccc2c(c1)OCCO2)N(Cc1ccncc1)c1nc2c(F)cccc2s1	-3	-9
38	CC(=O)Oc1ccc(CN2C(=O)C(CCc3ccccc3)ON=C2c2cnccn2)cc1 (stereo not drawn)	10	5
39	Cc1ccccc1OC1CN(C(=O)CSc2ncccn2)C1	-7	-8
40	Cc1ccc(CNC(C)C)c(C)c1	27	16
41	CCC(=O)Nc1ccc(SCC(=O)Nc2ccc(C)c(F)c2)nn1	-2	-5
42	CCOC(=O)c1c(NC2=NS(=O)(=O)c3ccccc32)sc2c1CCC(C)C2 (stereo not drawn)	2	0
43	Cc1c(C(=O)OCC2=NC3SC4=C(CCCC4)C3C(=O)N2)oc2ccccc12 (stereo not drawn)	21	14
44	Cc1cc(OCC2c3ccsc3CCN2C(=O)CN(C(=O)c2ccco2)C2CC2)ccc1Cl (stereo not drawn)	12	10
45	Cc1cccc(OCc2nc(CN(C(=O)NC(C)(C)C)C3CC3)cs2)c1	9	23

Arranged by number of heavy atoms (largest number first): part of the list above.
#	smiles	NPYLR7 ag	NPYLR7 ag max-min
42	CCOC(=O)c1c(NC2=NS(=O)(=O)c3ccccc32)sc2c1CCC(C)C2 (stereo not drawn)	2	0
36	N#Cc1cc2c(nc1SCC(=O)N1CCOCC1)CCC2	-2	-5
31	CCOc1ccc(Cc2c(O)nc[nH]c2=O)cc1	1	16

Results in sequence from the list.
Compounds 34 to 44 in NPYLR7 ag max-min, in turn: 0, -2, -5, -9, 5, -8, 16, -5, 0, 14, 10
Compounds 34 to 44 in NPYLR7 ag, in turn: 0, 0, -2, -3, 10, -7, 27, -2, 2, 21, 12

Other entries:
#	smiles	NPYLR7 ag	NPYLR7 ag max-min
46	COc1ccc(Nc2nc(-c3ccc(Cl)cc3)nc3cc(Cl)ccc23)cc1	-6	8
47	CCOc1ccc(Cl)cc1CSc1nnc(CC)n1N	-16	-21
48	Cc1ccc(NC(=O)CNc2cccc(C#N)c2)c(F)c1	-8	-10
49	CCn1cc(/C=C/C(=O)Nc2ccc(Cn3nc(C)c(Br)c3C)cc2)cn1	2	8
50	Cc1ccc(-n2nc3c(c2NC(=O)Cc2cccs2)CSC3)cc1C	0	-1
51	COC(=O)c1ccc(C)c(NC(=O)c2cc(-c3ccccc3)on2)c1	8	2
52	COc1ccccc1C(=O)N1CCCC(OCc2ccc(C)cc2)C1 (stereo not drawn)	-10	-9
53	Fc1ccc(CNCc2cccnc2N2CCOCC2)cc1F	0	-2
54	CC(C)C(NC(=O)CN1C[C@@H](C)O[C@@H](C)C1)c1nccn1C (stereo partly drawn)	-4	-6
55	CN(C)CCNC(=O)c1cc2n(n1)CCCN(S(C)(=O)=O)C2	2	-2
56	CC(C)CCNC(=O)c1ccccc1SCC(=O)N(C)C	-2	7
57	C=CCn1c(=O)c2c(nc3n(-c4ccc(OC)cc4OC)c(C)c(C)n23)n(C)c1=O	-7	-6
58	CN(C)CCN1C(=O)C(=O)C(=C(O)c2ccc(F)cc2)C1c1ccccc1F (stereo not drawn)	-2	-2
59	Cc1ccc2nc(Cl)nc(-c3ccccc3)c2c1	-6	-9
60	Cc1cn2c3c(=O)n(Cc4cccc(Cl)c4)c(=O)n(C)c3nc2n1C1CCCC1	2	8
61	CN(c1ccc(O)cc1)c1nc(-c2cccs2)cs1	0	-2
62	CCCCNC(=O)Nc1ccc(N2CCC(Cc3ccccc3)CC2)c(C(=O)NCCCOCC)c1	8	7
63	O=C(CN(Cc1nccn1C(F)F)C1CC1)Nc1ccccc1N1CCCC1=O	-2	1
64	C[C@H](NC(=O)c1ccc2nc(-c3ccccc3)c(-c3ccccc3)nc2c1)[C@H](O)c1ccccc1	-7	-12
65	CCOc1ccc(-c2csc(-n3nc(C)cc3NC(=O)c3cc(=O)c4ccccc4o3)n2)cc1	-3	-2
66	COc1cccc(CN(C)S(=O)(=O)N2CCCCC2C(=O)O)c1 (stereo not drawn)	2	1
67	CCCNC(=O)N1CCN(c2ccc(Cl)cc2C)C(=O)C1C (stereo not drawn)	0	1
68	CCc1cc(N2CCCC2C(=O)N(C)C)nc(CN2CCCC2C(=O)N(C)C)n1 (stereo not drawn)	5	4
69	COc1ccccc1O	-2	0
70	Cc1[nH]ncc1C(=O)Nc1cccc(Cl)c1O	0	0
71	COc1ccc(C2c3ccsc3CCN2CC(=O)N2CCN(C(=O)NC(C)(C)C)C(C)C2)cc1 (stereo not drawn)	7	0
72	Fc1ccc2c(c1)C(=NNc1nncc3ccccc13)CCS2	0	-1
73	O=C(O)c1ccccc1C1CCN(Cc2ccccc2-n2cccn2)C1 (stereo not drawn)	-4	-13
74	Cc1ccc(C)c(C2=NN(C(=O)CN3CCOCC3)C(c3ccccc3Cl)C2)c1 (stereo not drawn)	19	14
75	C[C@@]12CO[C@H](c3ccccc3)C[C@@H]1C[C@H](N1CCN(C(=O)c3ccco3)CC1)C2	3	16

Reformatted as labelled records: part of the list above.
41. CCC(=O)Nc1ccc(SCC(=O)Nc2ccc(C)c(F)c2)nn1
- NPYLR7 ag = -2
- NPYLR7 ag max-min = -5

42. CCOC(=O)c1c(NC2=NS(=O)(=O)c3ccccc32)sc2c1CCC(C)C2 (stereo not drawn)
- NPYLR7 ag = 2
- NPYLR7 ag max-min = 0

43. Cc1c(C(=O)OCC2=NC3SC4=C(CCCC4)C3C(=O)N2)oc2ccccc12 (stereo not drawn)
- NPYLR7 ag = 21
- NPYLR7 ag max-min = 14

44. Cc1cc(OCC2c3ccsc3CCN2C(=O)CN(C(=O)c2ccco2)C2CC2)ccc1Cl (stereo not drawn)
- NPYLR7 ag = 12
- NPYLR7 ag max-min = 10

Next entries.
#	smiles	NPYLR7 ag	NPYLR7 ag max-min
76	C=CCn1c(SCC(=O)Nc2ccc(OCC)cc2)nc2sc(C)c(C)c2c1=O	-3	-8
77	CCOC(=O)C(N)CSc1nc(-c2cnn(C)c2)cc(C(F)(F)F)n1 (stereo not drawn)	0	61
78	Cc1nn(-c2ccccc2)c2nc3cccc(=O)n3c(-c3ccc(Cl)cc3)c12	4	2
79	COc1ccccc1-c1cc(C(=O)NC(C)c2cnn(-c3ccccn3)c2C)[nH]n1 (stereo not drawn)	5&6	-1&5
80	O=C(O)COc1cc(Br)c(Br)c(Br)c1O	5	5
81	CCc1ccc(S(=O)(=O)c2ccc(-n3nc(C)cc3N)cc2)cc1	1	2
82	COC(=O)c1ccc(N=Cc2nc(-c3cc(Cl)ccc3OC)oc2O)cc1	-18	-20
83	Cc1cc(-n2nc(N)nc2N)n2ncnc2n1	-8	-11
84	CCN(CC)c1onc(-c2ccc(F)cc2)c1CN(CCOC)C(C)=O	15	17
85	Cc1noc(-c2cccc(C(F)(F)F)c2)c1C(=O)NCCc1ccc(F)cc1	3	-3
86	COC(=O)C1=C(C)NC2=C(C(=O)CCC2)C1c1ccccc1OCc1ccccc1 (stereo not drawn)	-4	-8
87	O=C(c1cn(Cc2ccccc2Cl)nn1)N1CCC(Cc2ccccc2F)CC1	10	-1
88	CN(Cc1ccccc1)C(=O)c1nc2ccccn2c1CNCc1n[nH]c2c1CCC2	6	4
89	C=CCN(Cc1nccn1Cc1ccccc1)C(=O)C1CCCC1	4	5
90	CCOc1ccccc1N1CCN(C(=O)c2cccc(CSc3nc(Cl)cc(N(C)Cc4ccccc4)n3)c2)CC1	0	13
91	Cc1nc2c(C)cccn2c(=O)c1NC(=O)Nc1ccc(Cl)cc1Cl	5	5
92	CCCN(Cc1csc(COc2ccc(OC)cc2)n1)C(=O)C1CCCC1	33	22
93	CC(C)OC(=O)c1c2c(n3ccccc13)C(=O)c1ccccc1C2=O	-6	-11
94	Cc1nc2c(C)cccc2cc1C(=O)N1CCC2(CCNC(=O)CC2)CC1	2	-2
95	C=C(C)CN(C)Cc1ccc(C(=O)Nc2ccc3c(c2)OCO3)cc1	7	-2
96	O=C(c1cc2ncccn2n1)N1CC[C@@H](c2ccc3c(c2)OCO3)[C@H](O)C1	4	4
97	COc1cccc(-c2ccccc2NC(=O)C2CCN(Cc3cccc(C)n3)CC2)c1	4&9	3&2
98	C[N+](C)(C)CCCCCNCC12CC3CC(CC(C3)C1)C2	6	-7
99	CC(C)(CNc1nnnn1-c1ccccc1)N1CCOCC1	5	5
100	Cc1cccc(OCCNC(=O)CN2C(=O)NC3(CCCC3)C2=O)c1	-11	-11
101	Cc1cc(Cl)ccc1N1C(=O)/C(=C\c2cccc(C#N)c2)N(C)C1=S	22	23
102	CCOC(=O)C1(Cc2ccccc2)CCN(Cc2nc(C(C)C)cs2)CC1	5	0
103	CC(C)c1cncnc1N1CC(c2cccnc2)C1	10	2
104	COc1ccc(NC(=O)Cn2ncn3nc(-c4ccc(C)cc4)cc3c2=O)cc1OC	-9	-12
105	Cn1cnnc1SCc1noc(C(C)(C)C)n1	9	6
106	CCOC(=O)C1CCN(C(c2ccco2)C2Sc3ncnn3C2=O)CC1 (stereo not drawn)	2	3
107	Cc1ccc(S(=O)(=O)N=C(Nc2nc(C)cc(C)n2)Nc2ccccc2C)cc1	-2	-8
108	CNC(=O)Cc1noc(-c2cnn(-c3ccccc3)n2)n1	0	0
109	CCOC(=O)N1CCN(C(=O)CC(c2cccc(OC)c2)c2c[nH]c3ccccc23)CC1 (stereo not drawn)	6	13
110	COc1ccc(-c2csc(-n3[nH]c(C)c(N=Nc4ccc(S(N)(=O)=O)cc4)c3=O)n2)cc1	16	16
111	COc1ccc(CC(=O)NCCNc2cc(-n3ccnc3C)nc(C)n2)cc1	-12	-19
112	O=C(CSc1nnnn1-c1ccccc1)Nc1cccc(Cl)c1	6	3
113	CCOC(=O)C1=C(C)N(CC)C(=S)NC1c1cccc(NC(=O)c2cccc(C(F)(F)F)c2)c1 (stereo not drawn)	4	16
114	O=C(c1cc2ccccc2oc1=O)n1cc(Br)cn1	12	6
115	COc1cc(C)ccc1Oc1cc(N2CCN(C(=O)C(C)(C)CCl)C(C)C2)ncn1 (stereo not drawn)	10	12
116	CCCOc1cccn2c(N(C=O)Cc3ccc(OC)cc3)c(CC)nc12	0	-3
117	C=CCn1c(SCCCC)nc(O)cc1=O	-2	-2
118	COC(=O)c1ccc2c(c1)nc(N1C[C@H]3C[C@H](C1)[C@@H]1CCCC(=O)N1C3)n2C	4	0
119	Cc1cnc(-n2cnnc2)c(-c2cc(O)cc(CCC3CCCCN3)c2)c1 (stereo not drawn)	6	8
120	CCc1nn(C)c(CC)c1S(N)(=O)=O	-8	657
